VDR inhibitor: Inhibitors of the vitamin D receptor (VDR): qHTS. Vitamin D3 receptor (Homo sapiens), P11473. VDR-SRC2-3 peptide fluorescence polarization, 2 h. Potency, µM, for the others: max response, negative = inhibition, usual class: inhibitors. 400,000 tested, 0.93% active. AID 504847, 2011; active means well fitted inhibition curve with a large enough effect; inconclusive means small, poorly fitted or top-dose-only effect, or another doubt; inactive means no such curve, though single readings can be large or run the other way; further: series mostly up to about 120 µM
Target sequence (P11473 whole entry, looked up): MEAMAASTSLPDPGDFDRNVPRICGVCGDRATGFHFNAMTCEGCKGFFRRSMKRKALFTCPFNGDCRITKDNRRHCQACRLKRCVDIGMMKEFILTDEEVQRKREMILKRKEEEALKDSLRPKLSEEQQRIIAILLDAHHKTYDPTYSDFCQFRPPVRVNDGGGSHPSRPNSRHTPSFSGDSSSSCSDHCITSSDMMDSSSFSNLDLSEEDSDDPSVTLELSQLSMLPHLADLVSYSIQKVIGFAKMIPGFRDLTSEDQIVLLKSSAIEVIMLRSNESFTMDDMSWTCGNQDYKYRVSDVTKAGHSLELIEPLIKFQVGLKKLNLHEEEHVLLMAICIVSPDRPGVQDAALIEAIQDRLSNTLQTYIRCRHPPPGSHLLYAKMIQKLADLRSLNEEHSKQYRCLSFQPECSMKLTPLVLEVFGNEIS
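Inhibition of the VDR/SRC2-3 peptide interaction is quantified by fluorescence polarization. Compounds (23 nl, pintool) incubate with the reagents for 2 hours at ambient room temperature.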
Active calls of the source: *; ? = inconclusive; & = joins results of further samples; [ ] = remark or other dose. On the % scale 0 is the no-effect control and ±100 the full control effect; potency means the concentration at half of the fitted maximal effect. A portion of the library, so the mix of outcomes need not match the whole.

Compound	VDR inhibitor
O=C(c1ccco1)N1CCN(c2c(-c3ccccc3)c3cc(Cl)ccc3[nH]c2=O)CC1	0%
CC(C)CC(=O)NC(=S)Nc1ccc(CN2CCOCC2)cc1	-16%
COc1cc(CO)ccc1OCC(=O)Nc1cccc2ccccc12	1%
O=C(c1ccc2ccccc2n1)N1CCN(c2ccccc2O)CC1	5%
O=C(CO)N/N=C/c1ccccc1F	-16%
CCN(CC)c1ccc(/C=N/NC(=O)c2ccoc2C)cc1	6%
O=C(Cc1cccs1)N/N=C/c1ccc(OCc2ccccc2)cc1	-8%
Cc1c(NC(=O)c2n[nH]c(=O)c3ccccc23)c(=O)n(-c2ccccc2)n1C	-7%
Cc1[nH]c2ccccc2c1/C=N/NC(=O)CNC(=O)c1ccco1	-9%
Cc1ccc(-c2cnc(NC(=O)CCC(=O)N3CCCCC3)n2C)cc1	-1%
COc1cc(NC(=O)Cn2c(=O)n(Cc3ccco3)c(=O)c3oc4ccccc4c32)cc(OC)c1	2%
COc1cccc(NC(=O)Cn2c(-c3nonc3N)nc3ccccc32)c1	14%
Cc1c(C2=CCN(S(=O)(=O)c3ccc(CC(C)C)cc3)CC2)c2ccccc2n1CC(=O)N1CCCC1	-10%
CCN(C(=O)CSc1nccn1C)c1cccc2ccccc12	12%
CC(C(=O)Nc1ccccc1Sc1ccccc1)N(c1ccccc1)S(C)(=O)=O (stereo not given)	14%
COc1ccc(C2CC(=O)Oc3c(C(CCN4CCCC(C)C4)c4ccc(N(C)C)cc4)c(OC)cc(OC)c32)cc1 (stereo not given)	-6%&1%
Cc1ccc(C(=O)Nc2ccccc2N2CCN(C(=O)C(C)C)CC2)cc1C	-11%
C#CCN(C)CCCOc1ccc(Cl)cc1Cl	5%&-10%&-1%&-16%
CCCOC(=O)/C=C/c1c(C)[nH]c(=O)[nH]c1=O	-13%
O=S(=O)(Nc1ccc(-c2ccc(N3CCCCC3)nn2)cc1)c1ccc(OC(F)(F)F)cc1	21%
CCCc1[nH]nc2c1C(CCc1ccccc1)C(C#N)=C(N)O2 (stereo not given)	-16%
CN1CCN(c2ccccc2NC(=O)Cn2ncc3c([nH]c4ccccc43)c2=O)CC1	8%
Cn1cc(Cl)c(/C=C(\C#N)S(=O)(=O)c2ccccc2)n1	-23%
Cc1cc(OCC(=O)NCCCN2CCOCC2)c2c(C)cc(=O)oc2c1	4%
O=C(NCCCN1CCN(c2ccc(F)cc2)CC1)c1cnn(-c2ccc(F)cc2)c1-n1cccc1	9%
COc1cc(/C=C/C(=O)Nc2ccncc2)cc(OC)c1OC	-11%
Cc1cc(C)n(C(=O)CSc2ccc(Cl)cc2)n1	-1%
Cc1ccc(CNC(=O)C2CCC(=O)N2CCc2ccccc2)cc1 (stereo not given)	16%
Cc1cccc(Nc2nc(N)nc(CN3CCN(Cc4ccc5c(c4)OCO5)CC3)n2)c1	-2%
O=C(Oc1nsnc1N1CCCCC1)N1CCOCC1	3%
Cc1noc(C)c1CSc1nc2ccccc2n1C	1%
O=C1NC(c2ccccc2)=C(c2ccc3ccccc3n2)C(c2ccccc2)N1 (stereo not given)	3%
Cc1cccc(NC(=O)CCN2CCC(C)CC2)c1	-8%
CCCn1nnc(NC(=O)c2ccc3ccccc3c2)n1	-6%
CCOC(=O)c1cnc2c(N=Nc3ccccc3)c(N)nn2c1N	1%
CCCCOC(=O)Nc1ccc(C(C)C)cc1	4%
CC(NC(=O)c1cc2c(=O)n(C)c3ccccc3c2n1C)c1ccc2c(c1)OCCO2 (stereo not given)	-8%
CCN(Cc1ccccc1)C(=O)Cn1ncc2c(=O)oc3ccc(C)cc3c21	-15%
O=C(NCCc1ccccc1)c1coc(=O)c(Br)c1	6%
O=Cc1ccccc1OCc1nnsc1Cl	-3%
Fc1ccc(Oc2cc(N3CCOCC3)nc(-c3ccccc3)n2)c(F)c1	3%
Cc1cc(C)cc(OCC(=O)Nc2nc(-c3ccccn3)cs2)c1	-19%
NC(=O)c1coc(-c2ccccc2)n1	-4%
COc1cccc(N(CC(=O)NC2CCCCCC2)S(=O)(=O)c2ccccc2)c1	-5%
COc1ccc(NC(C)=O)cc1CNC(=O)COc1c(C)c(C)cc(C)c1C	-16%
Cc1sc2ncn(CC(=O)NCc3ccco3)c(=O)c2c1-c1ccccc1	6%
O=C(N/N=C/c1cccnc1)c1cc(-c2ccccc2OCc2ccccc2)n[nH]1	5%
COCCOC(=O)C1=C(C)OC(N)=C(C#N)C1c1ccco1 (stereo not given)	-4%
Cc1ccc(CN(Cc2cccn2-c2nnc(N3CCCC3=O)s2)C(=O)Nc2ccc(F)cc2)cc1	7%
Fc1ccc(NC2=NCCCCC2)cc1	-3%

Other entries follow.
Compound	VDR inhibitor
CC(CC(=O)Nc1ccc2c(c1)OCO2)c1ccccc1 (stereo not given)	5%
COc1cccc(N(CC(=O)NCCSCc2ccc(C)cc2)S(C)(=O)=O)c1	-16%
Cc1cc(F)c(Nc2ncnc3cc(OCc4ccccc4)ccc23)cc1O	12%
CCCc1ccc(NC(=O)C2CCCN(c3cnccn3)C2)cc1 (stereo not given)	15%&16%
O=c1nc2ccc(Cl)cn2c2ccc(S(=O)(=O)N3CCCCC3)cc12	-20%
O=C(CSc1nnc(COc2ccc(Cl)cc2)o1)N1CCCCC1	-9%
CCCn1c(NCc2cccc(OC)c2O)nc2ccccc21	7%
Cc1ccc(S(=O)(=O)N2CCN(C(C)C)CC2)cc1	-6%
O=C(CCNS(=O)(=O)c1ccc(Cl)cc1)N1CCN(c2ccccn2)CC1	-12%
CCOC(=O)N1CCc2c(sc3c2c(=O)n(Cc2ccccc2)c(=O)n3CC(=O)Nc2ccccc2F)C1	-1%
O=C(/C=C/c1ccccc1)NC(=S)NNS(=O)(=O)c1ccccc1	6%
CC1(c2ccc(OC(F)F)cc2)NC(=O)N(CC(=O)Nc2ccccc2)C1=O (stereo not given)	20%
O=C(Nc1ccon1)c1cccc(S(=O)(=O)N2CCCCC2)c1	-20%
COc1ccc(OC)c(C(c2c(C)[nH][nH]c2=O)c2c(C)[nH][nH]c2=O)c1	?
S=C(NC1CCCCCC1)NC1CCCC1	-1%
O=C(NCc1ccco1)c1ccc2c(c1)N(Cc1ccc(Cl)cc1)C(=O)c1ccccc1S2(=O)=O	-15%
CCCCNc1ccc2nsnc2c1[N+](=O)[O-]	1%
CCCNC(=O)c1ccc(C2SCC(=O)N2CCc2ccccc2)cc1 (stereo not given)	-14%
COc1ccc(-n2ncc3c2CC(C)(C)CC3NC(=O)c2cn[nH]c2)cc1 (stereo not given)	-5%
CN(C)CCn1c2c(c(SCC(=O)Nc3cccc4ccccc34)nc1=O)CCC2	6%
CCNC(=O)CSc1nnc(-c2cccc(S(=O)(=O)N(CC)CC)c2)n1CCc1ccccc1	?
O=C(Nc1nsc(-c2ccccc2)n1)c1ccc(F)cc1	4%
O=C(O)c1cccc(NC(=O)c2ccc(S(=O)(=O)c3ccccc3)cc2)c1	3%
Cc1ccc(S(=O)(=O)N(C)CC(=O)O/N=C(\N)c2cccc([N+](=O)[O-])c2)cc1	-5%
CC(C)C1N(c2ccccc2)C(N)=C(C#N)C1(C#N)C#N (stereo not given)	-2%
COc1ccc(NC(C)=O)cc1S(=O)(=O)NC(Cc1ccccc1)C(=O)NC(C)c1ccccn1 (stereo not given)	-26%
O=C(CN1C(=O)c2ccccc2S1(=O)=O)Nc1ccccn1	0%
O=C(c1ccc2c(c1)N(Cc1ccccc1F)C(=O)c1ccccc1S2)N1CCOCC1	0%
CCOC(=O)N1CCN(C(=O)c2oc3ccc(S(=O)(=O)N4CCCCC4)cc3c2C)CC1	6%
CC(C)OC(=O)c1c(NC(=O)c2cccc(C(F)(F)F)c2)sc2c1CCCC2	?
O=C(c1cccc(S(=O)(=O)N2CCN(c3ccc(F)cc3)CC2)c1)N1CCCCCCC1	-16%
Cc1ccccc1/[N+]([O-])=C/c1ccncc1	?
CCC1CCc2c(c3ccccc3[nH]c2=O)O1 (stereo not given)	-10%
COCCNc1nc(-c2cc(-c3ccccc3)on2)cc(C(C)C)n1	1%
COc1ccc(CN2CCN(Cc3nc4ccccc4s3)CC2CCO)c(C)c1C (stereo not given)	61%[activator]
C=CCn1c(=NC(=O)CN2C(=O)CCC2=O)sc2cccc(OC)c21	-18%
O=[N+]([O-])c1ccccc1S(=O)(=O)Nc1ccc(-c2ccc(N3CCCC3)nn2)cc1	4%
COc1ccc(NS(=O)(=O)c2ccc3[nH]c(=O)[nH]c3c2)cc1	-3%
Cc1cccc(NC(=O)c2ccc3nc(N4CCOCC4)sc3c2)c1C	-28%
C=C(C)C1CC=C(CN2CCN(Cc3ccccc3)CC2)CC1 (stereo not given)	1%
CN(c1ccccc1)S(=O)(=O)c1cccc(C(=O)NC2CC(C)(C)NC(C)(C)C2)c1	-6%
COC(=O)C(CCSC)NS(=O)(=O)c1ccccc1Br (stereo not given)	1%
Cc1cc(C)c2c(c1)-c1c(ssc1=S)C(C)(C)N2C(=O)CN1C(=O)c2ccccc2C1=O	-7%
CC(C)(C)c1ccc(C(=O)Nc2ccccc2Cl)cc1	-24%
COc1ccc(Cl)cc1Nc1nc(-c2sc(NC(=O)CC(C)C)nc2C)cs1	-12%
COc1ccc(N2CCN(C(=O)c3ccc(Cl)c(S(=O)(=O)N4CCCC4)c3)CC2)cc1	5%
CN1N=C(N)c2cn(C3OC(COP(=O)(O)O)C(O)C3O)c3ncnc1c23 (stereo not given)	-4%
CC(=O)c1cccc(S(=O)(=O)NCC(C)(C)N2CCOCC2)c1	-7%
CCn1c(SCC(=O)NCC2CCCO2)nc2ccccc21 (stereo not given)	13%
CC(C)(CCl)C(=O)Nc1ccc(OC(F)(F)F)cc1	5%

In a second layout: results already given
> COC(=O)C(CCSC)NS(=O)(=O)c1ccccc1Br (stereo not given)
  VDR inhibitor: 1%

> Cc1cc(C)c2c(c1)-c1c(ssc1=S)C(C)(C)N2C(=O)CN1C(=O)c2ccccc2C1=O
  VDR inhibitor: -7%

> CC(C)(C)c1ccc(C(=O)Nc2ccccc2Cl)cc1
  VDR inhibitor: -24%

(next part)
Compound	VDR inhibitor
Cc1nonc1OC(C)CNc1ccc([N+](=O)[O-])cc1 (stereo not given)	-21%
CCCc1cc2c(cc1NC(=O)c1ccc(Br)cc1)OCO2	7%
COc1ccc(N2C(=O)c3ccc(C(=O)Nc4ccc(NC(C)=O)cc4)cc3C2=O)cc1	2%
O=C(Nc1ccccc1)C1CCCN(C(=O)c2ccc(Cl)cc2)C1 (stereo not given)	-3%
CC1CCN(C(=O)Cn2c(=O)n(-c3ccc(F)cc3)c(=O)c3sccc32)CC1	-12%
Cc1c(C(=O)Nc2cccc([N+](=O)[O-])c2)cnn1-c1ccccc1	-20%
CN(CCO)S(=O)(=O)c1ccc2c(c1)C(=NNC(N)=O)c1cc(S(=O)(=O)N(C)CCO)ccc1-2	10%
S=C(Nc1ccccc1)N1CCCCCC1	1%
CCOc1ccc(N(CC(=O)Nc2ccc(OC)cc2)S(=O)(=O)c2ccc(Cl)cc2)cc1	13%
CSCCC(NC(=O)c1ccc(Cl)cc1)C(=O)OCC(=O)NCc1ccco1 (stereo not given)	3%
COc1ccc(N2CC(C(=O)Nc3cccnc3)CC2=O)cc1 (stereo not given)	-7%
C=CCn1c(SCC(=O)N(C)CC(=O)Nc2ccc(C)cc2)nnc1-c1ccncc1	-1%
COC(=O)C1=C[C@@H](C(=O)OC)[C@H]2C3=C(C(=O)[C@@]2(C)NC(=O)c2ccccc2)[C@H](C)C(C(=O)OC)=C(C(=O)OC)[C@@H]3C1	-26%
O=C(/C=C/c1ccc(F)cc1)NCCC1=CCCCC1	-11%
COc1cc2c(cc1NC(=O)COc1ccc3ccccc3c1)oc1ccccc12	23%
CCN(CC(=O)NCc1cccs1)C(=O)c1cccc(S(=O)(=O)Nc2ccccc2Cl)c1	-11%
c1coc(CNc2nc3sc4c(c3c3ncnn23)CCCC4)c1	7%
C/C(C=O)=C/c1ccccc1	2%
C=CCN1C(=O)C(=O)N(Cc2nc3ccccc3s2)C1=O	7%
Cc1onc(-c2ccccc2)c1C(=O)Nc1nnc(C(C)C)s1	-16%

Two records picked at random from the list so far, as already listed:
Compound	VDR inhibitor
C=CCN1C(=O)C(=O)N(Cc2nc3ccccc3s2)C1=O	7%
COC(=O)C1=C[C@@H](C(=O)OC)[C@H]2C3=C(C(=O)[C@@]2(C)NC(=O)c2ccccc2)[C@H](C)C(C(=O)OC)=C(C(=O)OC)[C@@H]3C1	-26%

Next part:
Compound	VDR inhibitor
CCn1cc(C(=O)N2CCCC2)c(=O)c2cc(S(=O)(=O)N3CC(C)CC(C)C3)ccc21 (stereo not given)	-14%
S=c1[nH]nc(CCc2ccccc2)n1-c1ccc(Cl)cc1	-13%
O=C(Cc1cccs1)N1CCN(C(=O)C2CCCO2)CC1 (stereo not given)	1%
CCN(CC)S(=O)(=O)c1cccc(C(=O)N/N=C/c2ccccc2OCC(=O)O)c1	0%
CC(=O)c1c(Nc2ccccc2)sc(C(=O)c2ccccc2)c1C	-19%
CC(C)CC(=O)Nc1nnc(S(=O)(=O)N(C)Cc2ccco2)s1	-18%
Cc1ccc2c(c1)NCC(C(=O)NC1CCCCC1)O2 (stereo not given)	-12%
CCCCCCCN=CC1=C(O)CC(c2ccccc2)CC1=O (stereo not given)	-3%
O=C(CNS(=O)(=O)c1ccc(F)c(Cl)c1)NCCc1ccccc1	-15%
